CBX7 AlphaScr: CBX7 chromodomain binding inhibitors, primary screen, biochemical, AlphaScreen; normalised signal (fraction of DMSO) (no concentration beside the values); AID 1224903, 2016; AlphaScreen His6-CBX7 / biotin-H3K27me3 peptide binding; active compounds read low; hit rate 1.1% among 66,000; in the data active = normalised signal below about 0.5;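 also: 100 nL library stock added to about 20 µL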
Target sequence (O95931 whole entry, looked up): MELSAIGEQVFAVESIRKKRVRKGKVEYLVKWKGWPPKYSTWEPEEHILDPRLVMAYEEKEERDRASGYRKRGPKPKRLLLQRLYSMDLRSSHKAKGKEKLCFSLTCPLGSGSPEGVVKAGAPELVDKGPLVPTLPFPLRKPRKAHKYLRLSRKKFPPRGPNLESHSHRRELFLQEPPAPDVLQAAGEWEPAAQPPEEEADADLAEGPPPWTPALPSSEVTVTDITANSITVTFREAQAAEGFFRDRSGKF
CBX7 AlphaScr z-score: also measured in CBX7 AlphaScr; calls as there; z-score; measured here: z-score of CBX7 signal; some inactives read as strong as hits; reference of the scale not given here;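 same signal on another scale; lower means less binding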
Numbers without * were called inactive; & = joins results of further samples. An excerpt; rates above refer to the full screens.

A first look, three compounds:
compound	CBX7 AlphaScr z-score	CBX7 AlphaScr
Cc1cc(NC(=O)c2cc(-c3ccc4c(c3)OCO4)on2)no1	0.16	1
Cc1onc(-c2ccccc2Cl)c1C(=O)N1CCN(Cc2ccccc2)CC1	-0.36	0.94
CC1CCN(c2nnc(NC(=O)Nc3ccccc3C(F)(F)F)s2)CC1	-0.28	0.93

Main list, from the first entry:
compound	CBX7 AlphaScr z-score	CBX7 AlphaScr
Cc1cc(NC(=O)c2cc(-c3ccc4c(c3)OCO4)on2)no1	0.16	1
Cc1onc(-c2ccccc2Cl)c1C(=O)N1CCN(Cc2ccccc2)CC1	-0.36	0.94
CC1CCN(c2nnc(NC(=O)Nc3ccccc3C(F)(F)F)s2)CC1	-0.28	0.93
COc1ccc(NC(=O)Cc2c(C(=O)O)[nH]c3ccccc23)c(OC)c1	-0.57	0.97
O=C(Nc1ccc(-c2noc(-c3cccc(Br)c3)n2)cc1)c1cccc(Cl)c1	0.044	1
Cc1ccc(/C=C/c2nc(-c3cccc(C(F)(F)F)c3)no2)cc1	3.6	1.2
Cc1ccc(-n2c3c(cc(C(=O)Nc4cccc(F)c4)c2=O)C(=O)CCC3)cc1	1.2	1.1
O=C1c2ccccc2C(=O)N1c1cccc(-c2csc(Nc3ccc(Oc4ccccc4)cc3)n2)c1	-7	0.74
CCOc1ccccc1NC(=O)c1cc2c(-c3ccc(Cl)cc3)nn(C)c2s1	0.32	1.1
CCc1cccc(NC(=O)CCc2c(C)nc3cc(-c4ccccc4)nn3c2C)c1	-0.031	1
CC(C)CCNC(=O)CN1C(=O)COc2ccc(S(=O)(=O)N3CCOCC3)cc21	-1.2	0.95
COC(=O)c1cc2occc2n1CC(=O)Nc1ccc(OC)c(OC)c1	-0.3	0.99
Cc1ccc(Cl)cc1N1C(=O)C(N2C(=O)c3ccccc3C2=O)C1c1ccc(N(C)C)cc1 (configuration not stated)	-12	0.67
CCOC(=O)c1ccc(NC(=O)c2c(NCc3ccc(N(C)C)cc3)sc3c2CCC3)cc1	-3.6	0.87
O=C1c2ccccc2C(Nc2ccc(F)cc2)N1c1cccnc1 (configuration not stated)	0.23	1
O=C(CSc1nc2ccccc2[nH]1)Nc1ccccc1Br	1.4	1.1
CC1=C(C(=O)Nc2cccc(C)n2)C(c2cccnc2)C2=C(CCCC2=O)N1 (configuration not stated)	0.091	1
Cc1cc(NCc2ccccc2)nc2cc(O)ccc12	2.7	1.1
Cc1oc(-c2cccc(Cl)c2)nc1CN1CCC(C(=O)NCCCN2CCCC2=O)CC1	0.11	1
CCOC(=O)c1cnc2ccc(OCC)cc2c1Nc1ccc(C)cc1	1.9	1.1
Cc1ccc(NC(=O)CN2C(=O)c3ccccc3C2=O)cc1	1.9	1.2
COc1ccc(-c2cn(-c3ccc(F)cc3)c(=O)[nH]2)cc1	0.51	1
Cc1cc(C)n2cc(CSc3nc4ccccc4[nH]3)nc2n1	-0.89	0.96
CCOc1ccc(-c2nc(SCC(=O)NCCOC)c(-c3ccccc3)[nH]2)cc1	-1.7	0.9
CCCn1c(=O)c(C(=O)NC(C)c2ccccc2)c(O)c2ccccc21 (configuration not stated)	-4.5*	0.28*
Cc1cc(C)c(C(N)=O)c(Oc2ccc(Cl)cc2C)n1	-0.96&-9.6e-05	0.94&1
Cc1ccc(CN2C(=O)CN(C3CCCCCC3)C(=O)C2c2ccc(C)cc2)cc1 (configuration not stated)	-1.4	0.86
CN(C)CCNc1nc(-c2ccccc2)nc2ccccc12	3.1	1.1
CC1(C)CC(=O)c2cc(C(=O)NCc3ccccc3)c(=O)n(-c3ccc(Cl)cc3)c2C1	-0.12	0.97
Cc1cccc(C(=O)Nc2c(C(=O)c3ccc(Cl)cc3)oc3ccccc23)c1	1.1	1.3

Some of the entries above, reformatted.
Results follow in this order: CBX7 AlphaScr z-score	CBX7 AlphaScr
Cc1cc(NCc2ccccc2)nc2cc(O)ccc12
  2.7	1.1
Cc1ccc(Cl)cc1N1C(=O)C(N2C(=O)c3ccccc3C2=O)C1c1ccc(N(C)C)cc1 (configuration not stated)
  -12	0.67
CCOC(=O)c1cnc2ccc(OCC)cc2c1Nc1ccc(C)cc1
  1.9	1.1

(more compounds)
compound	CBX7 AlphaScr z-score	CBX7 AlphaScr
O=C(NCc1ccc(F)cc1)c1cc(-c2ccccc2O)on1	0.065	1
CCOC(=O)c1ccc(-n2c(C)nc3c(cnn3-c3ccccc3Cl)c2=O)cc1	0.61	1
CCCNC(=O)CN1C(=O)CCSc2ccccc21	-0.032	1
CCc1nnc(NS(=O)(=O)c2ccc(NC(=O)Cc3ccccc3)cc2)s1	1.4	1.2
Cc1nnc(NCC2CCCO2)[nH]c1=O (configuration not stated)	2.1	1.1
Cc1nc2nc(C)c(CCC(=O)NCCCN3CCN(c4cccc(Cl)c4)CC3)c(C)n2n1	4.2	1.2
O=C(NCC1CCCO1)C1CCCN(C(=O)c2cnn(-c3ccccc3)c2-n2cccc2)C1 (configuration not stated)	1.2	1
Oc1ccccc1-c1cc(-c2ccc3c(c2)OCO3)cc(-c2ccccc2)n1	-4.1	0.78
Cc1ccc(NC(=O)CCn2nc(-c3ccc(Cl)cc3)c3ccccc3c2=O)cc1	-0.4	0.99
Cc1c(C(=O)N2CCN(C)CC2)oc2ccc(S(=O)(=O)N3CCC4(CC3)OCCO4)cc12	0.45	1
COc1ccccc1CNC(=O)c1cccc(NC2=NC3CS(=O)(=O)CC3S2)c1 (configuration not stated)	-0.51	0.99
Cc1ccc(-c2nnc(Nc3ccccc3)c3ccccc23)cc1S(=O)(=O)N1CCOCC1	-0.86	0.92
CCc1ccc(NC(=O)CCc2c(C)nc3cc(-c4ccc(OC)cc4OC)nn3c2C)cc1	0.5	1
Cc1ccc(Cn2c(=O)c3cccnc3n(Cc3cccc(C(F)(F)F)c3)c2=O)cc1	1.3	1.1
Cc1ccc(CCNC(=O)C2CC(=O)N(CCC(C)C)C2)cc1 (configuration not stated)	-0.24	0.99
C(#CCN1CCOCC1)COC(c1ccccc1)c1ccccc1	1.1	1.1
Cc1oc(-c2ccc(Cl)cc2)nc1CSCC(=O)NC1CCN(Cc2ccccc2)CC1	-1.5	0.76
O=C1c2ccccc2C(Nc2ccc(F)c(Cl)c2)N1c1ccccn1 (configuration not stated)	0.96	1
c1ccc2c(OCc3nc4ccccc4[nH]3)cccc2c1	-0.43	0.96
COc1ccc2nc(N3CCC(C(=O)N4CCCCCC4)CC3)sc2c1	-0.059	0.99
Cc1sc2ncn(CC(=O)NCCN(C)C)c(=O)c2c1S(=O)(=O)N1CCC(C)CC1	2.8	1.3
CC(C)CCNC(=O)c1c[nH]c2ccc(S(=O)(=O)Nc3ccc(C(C)C)cc3)cc2c1=O	-1.9	0.9
CC1CCN(C(=O)C2CCC(CNS(=O)(=O)c3cccc4cccnc34)CC2)CC1 (configuration not stated)	-0.57	0.98
COc1ccc(CNc2sc3c(c2C(=O)Nc2ccc(OC)cc2)CCCC3)cc1	-6.7	0.52
Cc1cc(N2CCCC2)nc2ccc(NC(=O)CCC(=O)N(C)C3CCCCC3)cc12	-0.033	0.97
CCC1CCCCN1C(=O)C1CCN(S(=O)(=O)c2c(C)noc2/C=C\c2ccc(OC)cc2)CC1 (configuration not stated)	-0.29	0.86
COc1ccc(-n2ccnc2SCC(=O)Nc2ccc(Cl)c(Cl)c2)cc1	-0.21	0.84
COc1ccc(CNC(=O)c2ccc3c(c2)N(Cc2ccc(F)cc2)C(=O)c2ccccc2S3=O)cc1 (configuration not stated)	-1.4	0.95
CCCC1CCC(c2ccc(-c3noc(-c4ccccc4Br)n3)cc2)CC1 (configuration not stated)	1.4	1.1
CCOC(=O)c1cc(-c2ccc(OC)cc2)no1	0.36	1
COc1ccc(Cl)cc1NC(=O)CCCN1C(=O)c2cccnc2C1=O	-0.29	0.99
O=S(=O)(Nc1ccc(Cl)c(C(F)(F)F)c1)c1cccc2cccnc12	2.1	1.1
Cc1ccc(CNC(=O)C2CC(=O)N(CCC(C)C)C2)cc1 (configuration not stated)	-1.4	0.95
CCCOc1ccc(C(O)(CCN2CCCCC2)c2ccccc2OC)cc1 (configuration not stated)	0.67	1
CC(C)c1ccc2oc(-c3ccc(NC(=O)c4ccc(Cl)cc4)cc3)nc2c1	-0.79	0.97
Cc1cc2c(cc1C)C(c1cccc(Cl)c1)CC(=O)N2 (configuration not stated)	0.57	1
Cc1ccc(S(=O)(=O)N(CC(=O)Nc2cccnc2)c2cccc(Cl)c2)cc1	-1.9	0.78
COc1cc(-c2nc(-c3ccc(C)c(C)c3)c(-c3ccc(C)c(C)c3)[nH]2)cc(OC)c1O	-0.5*	0.49*
COc1ccc(-n2nc(C(=O)Nc3ccccc3OC)c3ccccc3c2=O)c(OC)c1	-1.5	0.88
Cc1ccc(-n2nc3c(c2NC(=O)C2CCCCC2)CS(=O)(=O)C3)cc1	1.6	1.2
COc1cc(CNc2ccc(-c3nc4ccccc4o3)c(O)c2)ccc1OCc1ccc(Cl)cc1	-0.93	0.92
c1ccc(SCc2cn3cccnc3n2)cc1	0.13	1
O=C(CN1CCN(Cc2ccc(Cl)cc2)C1=O)NCCCN1CCN(c2ccccc2F)CC1	0.77	1
O=C(NCCc1ccccc1)C1c2ccccc2C(=O)N1Cc1ccc(F)cc1 (configuration not stated)	-0.063	0.98
Cc1ccc(-c2nnc(OCCN3CCCCC3)c3ccccc23)cc1	0.34	1.1
O=C(Nc1cccc(Cl)c1Cl)c1cc(-c2cccs2)nc2ccccc12	1.8	1.1
CCc1nc2cc(C(F)(F)F)cc(Cl)c2nc1CC	3.5	1.5
COc1ccc(N2C(=O)CCC(C(=O)NCc3ccccc3OC)C2c2ccc(F)cc2)cc1 (configuration not stated)	0.92	1.1
CCCCn1c2c(c3ccccc31)CCc1nonc1-2	3.4	1.1
COc1ccc(OC)c(NC(=O)c2cn(C)c(=O)c3cc(OC)c(OC)cc23)c1	0.19	1
COc1ccc(CC(=O)Nc2ccc(-c3noc(-c4cc(Cl)ccc4OC)n3)cc2)cc1	0.84	1.1
COc1ccc(Oc2nc(-c3ccccc3)c3cc(C)ccc3n2)cc1	-1	0.94
O=C(CN1C(=O)CCC1=O)Nc1nc(-c2ccncc2)cs1	0.65	1
CCCCN(C)S(=O)(=O)c1ccc(C(=O)Nc2nnc(CC)o2)cc1	-17*	0.39*
O=C(Nc1ccc(F)cc1F)c1cnn(-c2ccccc2)c1C1CCNCC1	0.17	1
O=C(NCCc1ccccc1)C1CCN(S(=O)(=O)c2cccc3cccnc23)CC1	1.5	1.1
COC(=O)c1cccc(Nc2cc(C)nc3ccc(C)cc23)c1	-0.61	0.95
Clc1ccc2c(c1)C(c1ccccc1)=Nc1ccc(Cl)cc1C(c1ccccc1)=N2	-7	0.76
COc1cccc(Nc2nc(-c3ccc(Cl)c(Cl)c3)cs2)c1	-4*	0.44*
COc1cccc(C(=O)N2CC(=O)Nc3ccc(Cl)cc3C2c2ccc(F)cc2)c1 (configuration not stated)	0.61	1.1

Sorted by molar mass (high to low): part of the list above
compound	CBX7 AlphaScr z-score	CBX7 AlphaScr
Cc1ccc(S(=O)(=O)N(CC(=O)Nc2cccnc2)c2cccc(Cl)c2)cc1	-1.9	0.78
COc1cccc(Nc2nc(-c3ccc(Cl)c(Cl)c3)cs2)c1	-4*	0.44*
COC(=O)c1cccc(Nc2cc(C)nc3ccc(C)cc23)c1	-0.61	0.95

Single entries from the entries so far:
CBX7 AlphaScr z-score with O=C1c2ccccc2C(Nc2ccc(F)cc2)N1c1cccnc1 (configuration not stated) is entered as 0.23
CBX7 AlphaScr z-score with O=C1c2ccccc2C(Nc2ccc(F)c(Cl)c2)N1c1ccccn1 (configuration not stated) is entered as 0.96

Later entries
compound	CBX7 AlphaScr z-score	CBX7 AlphaScr
CCOc1ccccc1NC(=O)Cn1nc(Cc2cccnc2)c2ccccc2c1=O	0.61	1.1
Cc1cccc(Nc2nc(-c3ccc(Cl)c(Cl)c3)cs2)c1	-0.97	0.95
CCc1ccc(CNC(=O)c2ccc3c(c2)ncn3C2CCCCC2)cc1	0.73	1
CCOc1ccc(CCNC(=O)C2CCN(C(=O)c3cc4sccc4n3CC)CC2)cc1OCC	-0.99	0.78
CC(OCCN(C)C)C(=O)C12CC3CC(CC(C3)C1)C2 (configuration not stated)	-0.99	0.91
CCOc1cc(C2CC(=O)Nc3cc4c(cc32)OCO4)ccc1OC(=O)C1CCCCC1 (configuration not stated)	-6.4	0.84
O=C(Nc1ccc2oc(-c3ccccc3)nc2c1)c1ccccc1F	3.4	1.1
CC(CCc1ccccc1)NC(=O)Cn1ncc2ccsc2c1=O (configuration not stated)	0.6	1
CC(C(=O)NCc1cccs1)C1Sc2ccccc2N(Cc2ccc(F)cc2Cl)C1=O (configuration not stated)	3.6	1.1
COc1ccc(C)cc1NC(=O)C1CCN(S(=O)(=O)c2ccccc2)CC1	-1.8	0.9
COC(=O)c1ccccc1NC(=O)c1c(-c2ccccc2Cl)noc1C	1.2&-0.46	1.1&0.98
Cc1cc(NC(=O)COc2ccc(C)c(C)c2)no1	0.31	1

High-throughput results (PubChem)
